RanGTP-Imp inh: inhibitors of RanGTP-importin-beta interaction, primary screen, biochemical, FRET, CFP-Ran, YFP-importin-beta, homogeneous. 1.1% of 300,000 active. inhibition, % (test concentration not listed). AID 2216. cell-free CFP-Ran/YFP-importin-beta FRET ratio;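 active = most replicates above 15%; inconclusive = exactly half above 15%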;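 note: 0% = DMSO wells and 100% = Ran loaded with GDP instead of GTP; wells of about 40 µL received 100 nL stock; the first replicate is given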
T cruzi inh: blocks replication of Trypanosoma cruzi. T. cruzi beta-gal in NIH3T3, luminescence, 90 h. inhibition, % (concentration not given with the values). 1.4% of 300,000 active;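 active = mean inhibition across valid replicates above about 55%, limit read from the data; inconclusive = mean below that limit but half or more replicates reach it; inactive = mean below it, under half of replicates reach it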;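 note: signal also drops with host cell toxicity which is not excluded here; 0% = plate median of DMSO wells and 100% = zero luminescence signal; higher percent means less beta-gal luminescence so fewer parasites; stock transfer was 50 nL into about 50 µL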
Ecoli rRNA inh: inhibits bacterial ribosomal RNA function over humanized ribosomes; GFP signal change (wild-type ribosome), % (concentration not given with the values); E. coli WT GFP vs humanized-ribosome RFP mutants, fluorescence, 24 h; stronger effect = lower value; DMSO median 0, no signal -100; 1.6% of 350,000 active; AID 720706;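 active = significant combined selectivity score with lowered wild-type GFP, culture density cut under 30%, mutant RFP and density less affected; inactive = any of these conditions unmet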; note: one replicate is shown; some compounds called inactive have numbers as strong as hits
MLL AF4-AF9 inh: blocks AF4 peptide binding to human AF9 | P42568 | AlphaScreen, biotin-AF4 peptide binding to FLAG-AF9 | inhibition, % at 10 µM | 0.47% of 350,000 active;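 active = every replicate reaching a set inhibition limit, whatever the replicate mean, cut at about 25% in these data; inconclusive = mean inhibition reaches that limit but some replicates miss it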;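 note: 0% = plate neutral control median and 100% = total signal loss; the record names both 10 and 1 µM as test concentration; the first replicate is given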
Target sequence (P42568 whole entry, looked up): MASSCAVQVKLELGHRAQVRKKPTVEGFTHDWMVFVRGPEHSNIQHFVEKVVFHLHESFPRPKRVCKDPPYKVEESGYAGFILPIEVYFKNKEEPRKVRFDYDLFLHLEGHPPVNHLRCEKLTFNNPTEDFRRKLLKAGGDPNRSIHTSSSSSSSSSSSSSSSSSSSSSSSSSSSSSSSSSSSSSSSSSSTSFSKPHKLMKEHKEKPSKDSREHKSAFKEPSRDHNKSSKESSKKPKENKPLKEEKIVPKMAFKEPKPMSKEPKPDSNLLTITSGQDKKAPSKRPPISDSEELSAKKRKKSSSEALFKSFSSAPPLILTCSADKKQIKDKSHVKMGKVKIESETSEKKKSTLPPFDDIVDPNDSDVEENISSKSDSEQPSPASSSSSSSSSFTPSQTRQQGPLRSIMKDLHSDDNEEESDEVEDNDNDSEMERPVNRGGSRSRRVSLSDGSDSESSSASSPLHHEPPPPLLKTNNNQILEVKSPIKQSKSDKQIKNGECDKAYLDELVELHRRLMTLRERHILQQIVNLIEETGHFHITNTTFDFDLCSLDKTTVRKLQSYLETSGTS
Calb FLC: affects C. albicans growth with fluconazole; C. albicans CaCi-2 (fluconazole-resistant clinical isolate) + fluconazole, Alamar Blue growth, 48 h; 0.57% of 300,000 active; AID 1979; growth inhibition, % (concentration not given with the values);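 active = most replicates above 75%; inconclusive = exactly half above 75%; inactive = most below 75%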;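 note: all wells also contain fluconazole at 8 µg/ml as a sub-toxic cotreatment; 0% = median of DMSO wells and 100% = median of geldanamycin control wells; wells of about 8 µL received 7.5 nL stock; the first replicate is given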
Beta apoptosis: blocks beta cell apoptosis | INS-1E cytokine-induced death, ATP luminescence, 48 h; percent of positive-control rescue, neutral wells zero | protection from apoptosis, % (concentration not given with the values) | 0.8% of 300,000 active;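 active = all replicates at 75% or more, or half of them and the mean; inconclusive = half reach 75% but not the mean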;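 note: 0% = cytokine-treated negative control wells and 100% = positive control rescue; higher means more ATP so stronger rescue from cytokine killing; wells of about 40 µL received 100 nL stock; the first replicate is given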
Bfl-1 A1 inh: inhibitors of the anti-apoptotic protein A1, read as caspase activation; MEF A1-2A-BIM cells, Caspase-Glo 3/7 luminescence, 3 h; percent of clofoctol response, vehicle zero; caspase activation, % (concentration not given with the values); 0.066% of 330,000 active; AID 2462;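 active = over half of replicate activation scores above 10%, or exactly half above 10 with the replicate mean above 10; inconclusive = replicate mean below 10 yet half the replicates above 10; inactive = over half of replicates below 10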;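 note: wells of about 30 µL received 50 nL stock; many hits fall short of the cut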
Vif A3G: inhibitors of Vif binding to APOBEC3G peptide, primary screen, biochemical, TR-FRET, GST-Vif 1-94, biotin-A3G peptide, dose response retest (AID 1117319) | TR-FRET GST-Vif / biotin-A3G peptide binding; higher % means a stronger effect; test concentration not given here; strong numbers were not always called active | one-dose inhibition, %; IC50 in µM for titrated hits | 0.57% of 260,000 active;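 active = above the screen mean plus three standard deviations and confirmed in dose response; inconclusive = results disagree or hit not tested in dose response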;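 note: Vif residues 1-94 fused to GST binding biotinylated APOBEC3G peptide 110-148; 0% = full assay without inhibitor and 100% = GST in place of GST-Vif; retest series ran down from 100 µM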
Ecoli rRNA inh OD600: recorded beside Ecoli rRNA inh, whose call it bears; OD600 change, %; measured here: OD600 growth;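 optical density of the mix in the first replicate; 0 = DMSO median and -100 = no signal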
Ecoli rRNA inh RFP: further read-out of Ecoli rRNA inh, marked with its call; RFP signal change, %; measured here: RFP humanized mutant strains;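 first replicate; 0 = DMSO median and -100 = no signal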
Numbers without * were called inactive; ? = inconclusive; nt = not tested or not shown.

structure	RanGTP-Imp inh	T cruzi inh	Ecoli rRNA inh	Ecoli rRNA inh OD600	Ecoli rRNA inh RFP	MLL AF4-AF9 inh	Calb FLC	Beta apoptosis	Bfl-1 A1 inh	Vif A3G
O=C(NCC1CCCO1)c1csc2c1CCCC2 (centres undefined)	?	3	5	9	-0.9	-2.8	23	-2	0.3	-4%
O=C1Cc2cc(S(=O)(=O)Nc3cccc([N+](=O)[O-])c3)cc3c2N1CCC3	?	1	-7	6	-1.7	2.7	-13	2	2.4	nt
COC(=O)c1cccc(-n2sc3ccccc3c2=O)c1	nt	nt	-14	-4	-11	-22	nt	7	-11	nt
COc1ccc2cc(C(=O)Nc3ccccc3)sc(=O)c2c1OC	3.9	-10	20	12	-6.2	-4.3	-3	-4	-0.9	5%
CNc1ccc(OC(F)F)cc1C(=O)c1ccccc1	8.4	-18	nt	nt	nt	nt	9	1	-0.9	6%
Cc1cc(Br)c(NC(=O)COC(=O)CSc2nnc(-c3ccc(Cl)cc3)o2)c(Br)c1	1.1	-1	nt	nt	nt	nt	-14	-6	0.7	-31%
c1ccc2c(-c3cn4ccccc4n3)c[nH]c2c1	2.6	7	nt	nt	nt	nt	-4	2	0.1	5%
Cc1ccc(S(=O)(=O)NCC(=O)N2CCN(S(=O)(=O)c3ccc(Cl)cc3)CC2)cc1C	1.5	-3	9	10	4.4	-1.1	-3	-5	0.5	-1%
COc1ccc(C(C#N)(CCC#N)CCC#N)cc1OC	-2.5	-7	nt	nt	nt	nt	-5	-7	-0.3	1%
Cc1ccc(NC(=O)c2cc(NC(=O)C3CC=CCC3C(=O)O)ccc2N2CCOCC2)cc1Cl (centres undefined)	-2.9	-9	nt	nt	nt	nt	-3	-9	1.4	16%
CC(=O)Nc1ccc(NC(=O)[C@@H]2CCCC[C@@H]2C(=O)O)cc1	2.6	-5	20	11	0.9	0.0	7	-3	-0.1	6%
O=C(c1cc(=O)[nH]c2ccccc12)N1CCN(S(=O)(=O)c2ccc3ccccc3c2)CC1	-2.7	1	nt	nt	nt	nt	-1	4	-0.2	4%
Cn1c(Cc2ccccc2)nnc1SCc1ccc(C(=O)O)cc1	?	-9	nt	nt	nt	nt	-2	-1	2.0	-7%
CCOc1cccc(OCCOc2ccccc2[N+](=O)[O-])c1	4.2	4	nt	nt	nt	nt	-15	-3	0.1	-1%
O=C(COC(=O)c1ccccc1Cl)NCc1ccco1	nt	nt	10	3	0.8	0.0	nt	-3	?	nt
Cc1cc(C)cc(N=c2c([N+](=O)[O-])nn(-c3ccc4c(c3)OCCO4)n2O)c1	0.0	58*	0	7	-0.8	-22	6	-4	-0.4	-9%
COc1ccc(/C=C/C(=O)OCc2cc(=O)n3c(n2)sc2ccccc23)cc1	-1.4	-10	nt	nt	nt	nt	-3	-3	0.0	nt
CC(C)c1ccc(NC(=O)CSc2nc3ncccc3[nH]2)cc1	3.8	-3	1	-25	6.2	2.5	10	6	1.1	0%
COC(C[C@H]1O[C@H]1C(=O)COCc1ccccc1)OC	-5.4	-28	-1	-4	-3.8	-3.1	7	nt	nt	0%
CCOc1ccccc1NC(=O)c1ccccc1NC(=O)c1ccco1	4.4	2	3	3	-2.0	-5.8	12	-3	-0.3	-7%
COc1ccc(C)cc1NC(=O)CSc1nc(SC)ns1	2.2	0	nt	nt	nt	nt	-4	-3	-1.7	-2%
COc1ccc(CC(=O)c2ccc(OC)c(OC)c2)cc1	3.5	2	-1	-14	0.2	7.3	0	-3	-1.8	3%
Cc1ccc(OCC(=O)c2cc(C)n(C3CC3)c2C)c([N+](=O)[O-])n1	-1.5	9	nt	nt	nt	nt	-8	-1	0.3	28%
COCc1cc(=O)[nH]c(SCC(=O)Nc2ccccc2)n1	-4.7	-14	nt	nt	nt	nt	-5	4	-0.3	1%
Cc1cc(OCC(=O)NCCN2CCOCC2)cc(C)c1Cl	-1.8	-1	7	2	-0.2	-0.6	-9	-5	0.1	nt
O=C(CCl)Nc1cc(S(=O)(=O)N2CCCCCC2)ccc1Cl	-2.5	2	nt	nt	nt	nt	-24	1	0.2	?
O=C(c1ccco1)N1CCN(S(=O)(=O)c2ccccc2[N+](=O)[O-])CC1	4.0	0	11	17	-1.2	0.4	0	nt	0.6	-4%
CCOC(=O)C1=C(COC(=O)c2ccc(C)s2)NC(=O)NC1C (centres undefined)	2.0	-6	-4	-2	3.5	-2.2	-5	0	-0.2	-4%
COc1cc(C(=O)N2CCc3ccccc32)c([N+](=O)[O-])cc1OC	3.1	4	14	10	1.0	3.4	1	-2	-0.5	nt
Cc1cc(C)cc(N(CC(=O)NCC2CCCO2)C(=O)CN2C(=O)COc3ccccc32)c1 (centres undefined)	-1.8	-5	nt	nt	nt	nt	10	7	0.3	5%
CCCn1c(N/N=C\C=C\c2ccccc2)nc2c1c(=O)[nH]c(=O)n2C	-5.8	3	-11	-3	-2.6	0.1	42	12	-0.1	1%
CCn1c(=O)c2sccc2n(Cc2cccc(C)c2)c1=O	3.9	8	-16	-18	-5.9	1.4	16	nt	0.4	11%
CCCCC1=C([O-])C2N=CC=CC2=[N+](c2ccccn2)C1=O (centres undefined)	-0.1	-26	nt	nt	nt	nt	-3	-6	-0.1	-1%
COC(=O)CCCC1=CC2=C(c3ccccc3)C(=O)C(C)(OC(=O)C3CCCC3)C(=O)C2=CN1C1CCCCC1 (centres undefined)	-6.0	5	10	5	3.5	10	34	1	0.1	nt
O=C(COC(=O)c1ccc(O)cc1O)Nc1ccc(Cl)cn1	-2.9	-7	-6	-9	-2.0	0.0	-18	-10	-1.1	11%
Cc1onc(-c2ccccc2Cl)c1C(=O)Nc1cccnc1	-1.9	3	nt	nt	nt	nt	2	-1	1.3	26%
Cc1ccc(NC(=O)N2CCC(C(=O)NCCC3=CCCCC3)CC2)cc1	1.2	-23	nt	nt	nt	nt	-10	0	-0.5	-2%
CCCOc1ccc(NC(=O)CC2C(=O)N(CC)C(=S)N2Cc2cccs2)cc1 (centres undefined)	2.7	19	nt	nt	nt	nt	3	2	0.7	3%
COc1cccc(-c2nc(N3CCN(Cc4ccccc4)CC3)c3ccccc3n2)c1O	nt	nt	5	2	-0.9	1.2	nt	11	-0.6	20%
C=CCNC(=O)/C(=C/c1cn(-c2ccccc2)nc1-c1cccc([N+](=O)[O-])c1)NC(=O)c1ccccc1	4.9	17	nt	nt	nt	nt	25	7	0.0	nt
CC(C)OC(=O)c1cc(=O)[nH]c2ccccc12	-1.9	-7	nt	nt	nt	nt	-2	-6	1.1	-8%
CC(=O)N1CCN(C(=O)COC(=O)CNC(=O)c2ccc(C)cc2)CC1	nt	nt	5	6	-2.0	0.0	nt	-5	0.5	11%
Cc1ccc(NC(=O)CS(=O)c2ccccc2N)c(C)c1 (centres undefined)	3.5	1	10	6	-1.6	-1.9	14	-14	0.6	nt
O=C(Nc1ccc(NC(=O)c2ccco2)c(Cl)c1)c1cccc([N+](=O)[O-])c1	0.4	9	10	13	3.3	-3.2	-9	3	-5.2	1%
CC(C)C(=O)Nc1ccc(N2CCOCC2)c(S(=O)(=O)Nc2ccccc2Cl)c1	nt	nt	-14	-44	-4.8	4.6	nt	-10	-1.3	6%
O=C1N=c2ccccc2=C1c1sc(=O)[nH]c1O	0.1	30	13	13	2.6	?	-5	1	0.5	10%
Cc1ccc(C(=O)N2C(CC(=O)Nc3ccc(Cl)cc3)C(=O)NC3CCCCC32)cc1 (centres undefined)	-2.8	3	-1	-1	-2.2	-3.2	-4	20	-0.3	2%
COc1ccccc1CN=C1Nc2ccccc2CS1	3.0	31	11	5	0.8	1.9	-32	11	-5.2	5%
COc1cccc(CC(=O)Nn2c(C)nc3ccccc3c2=O)c1	7.2	7	nt	nt	nt	nt	-2	-5	2.3	3%
C/C(CC(=O)Nc1cc(C)ccn1)=N\NC(=O)c1cccc(C)c1	-0.8	5	14	21	2.5	-4.0	-9	-21	-0.8	24%

(continued)
structure	RanGTP-Imp inh	T cruzi inh	Ecoli rRNA inh	Ecoli rRNA inh OD600	Ecoli rRNA inh RFP	MLL AF4-AF9 inh	Calb FLC	Beta apoptosis	Bfl-1 A1 inh	Vif A3G
COc1ccc(S(=O)(=O)N2CCOCC2)cc1NC(=O)CSc1n[nH]c(C(C)C)n1	2.5	0	10	7	-2.6	-3.6	22	0	0.0	13%
O=C(CSc1cn(CCNC(=O)c2cccs2)c2ccccc12)NCc1ccccc1	-0.9	2	-3	-28	-2.2	1.7	-2	0	-0.1	-1%
CCOC(=O)C(=Cc1ccc(-c2ccsc2C(=O)OC)o1)C(=O)OCC	-0.7	29	nt	nt	nt	nt	25	-27	0.9	-2%
CSc1ccc(S(=O)(=O)NCc2ccccc2Cl)cc1	4.7	7	nt	nt	nt	nt	0	-4	2.2	3%
CC1(C)CC(=O)C=C(c2ccc3[nH]ccc3c2)C1	-3.7	-12	-18	-8	12	-5.2	-23	-1	0.7	nt
CCc1nnc(NC(=O)c2cc3c(s2)CCCCC3)s1	7.1	-5	15	14	-3.9	nt	14	nt	-1.4	nt
O=C(Nc1ccc(C(=O)Oc2ccccc2)c(O)c1)c1ccco1	8.7	-5	nt	nt	nt	nt	36	8	-8.0	-2%
N#CC(c1ccc(O)cc1)N1CCOCC1 (centres undefined)	-2.7	-8	16	11	1.1	5.1	1	nt	-0.9	9%
O=C(COC(=O)c1ccc2c(c1)OCO2)Nc1ccccc1Cl	nt	nt	7	6	0.4	-1.7	nt	-7	-0.7	nt
Cc1ccc(/C=C/C(=O)c2cc(Br)ccc2OC(=O)c2ccco2)cc1	0.3	-6	nt	nt	nt	nt	1	8	1.6	-4%
CCOc1cc(C2C(C#N)=C(N)OC3=C2C(=O)CC(C)(C)C3)cc([N+](=O)[O-])c1O (centres undefined)	-2.3	2	3	-5	7.7	-1.6	18	1	-0.4	-2%
CCN(CC)CCN1C(=O)C(=O)/C(=C(/O)c2cccc(OC)c2)C1c1ccccn1 (centres undefined)	43*	-15	nt	nt	nt	nt	-3	nt	0.6	14%
OC(CON=C1c2ccccc2-c2ccccc21)CN1CCNCC1 (centres undefined)	-2.1	2	-11	-22	-3.1	13	1	33	0.2	-2%
O=C(O)CC1(CC(=O)Nc2ccc(Br)cc2)CCCCC1	1.3	-13	-14	-4	-0.6	1.1	17	-5	-0.2	0%
COc1ccccc1CN1CC(C(=O)N(C)CCc2nc3ccc(F)cc3[nH]2)CCC1=O (centres undefined)	4.3	0	3	6	-0.9	-3.8	10	-10	0.4	-5%
CCCOc1ccc(Cc2c(Cl)nc(SC)nc2N(C)C)cc1	1.2	-13	-2	-12	0.0	-4.0	0	3	-0.4	nt
O=C(c1ccc2c(=O)n3c(nc2c1)CCCCC3)N1CCN(Cc2ccccc2)CC1	0.4	15	nt	nt	nt	nt	-6	-1	0.5	7%
Cc1c(NC(=O)CN2C(=O)c3ccc([N+](=O)[O-])cc3C2=O)c(=O)n(-c2ccccc2)n1C	-1.5	3	26	25	1.5	-1.8	7	-3	-0.1	nt

Only part of the results is shown. The share of hits here may be higher or lower than overall.
